UCH37 inh – blocks the human deubiquitinase UCH37. Q9Y5K5. 0.33% of 330,000 active. inhibition, % (no concentration beside the values). purified proteasome/UCH37, Ub-AMC cleavage fluorescence;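 active means mean of two replicates above 20%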;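 further: 0% = compound-free wells with enzyme and 100% = wells lacking proteasome; stock transfer was 100 nL into about 20 µL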
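Signal – fluorescence, ex 355 nm, em 460 nm · System – Proteasome-bound UCH37 · Input – 0.15 nM proteasome as dispensed · Timing – 30 min preincubation with enzyme, 25 min cleavage at room temperature · Read-out basis – percent inhibition of cleavage signal versus uninhibited and no-proteasome wells · Medium – Tris-HCl pH 7.4 with ATP-MgCl2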
LANA-H2B inh – blocks KSHV LANA binding to histone H2A/H2B; 0.6% of 320,000 active; AID 2629; inhibition, % (concentration not given with the values); cell-free LANA-H2A/H2B peptide, fluorescence polarization; in the data active means inhibition mostly above about 10%, no sharp cut-off; inactive means mostly below about 6.7%;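 further: stock transfer was 7.5 nL into about 10 µL; 0% = median of vehicle wells and 100% = median of positive control wells; one replicate is shown; the record names a cut of 25% in any replicate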
Target sequence (Q9QR71 whole entry, looked up): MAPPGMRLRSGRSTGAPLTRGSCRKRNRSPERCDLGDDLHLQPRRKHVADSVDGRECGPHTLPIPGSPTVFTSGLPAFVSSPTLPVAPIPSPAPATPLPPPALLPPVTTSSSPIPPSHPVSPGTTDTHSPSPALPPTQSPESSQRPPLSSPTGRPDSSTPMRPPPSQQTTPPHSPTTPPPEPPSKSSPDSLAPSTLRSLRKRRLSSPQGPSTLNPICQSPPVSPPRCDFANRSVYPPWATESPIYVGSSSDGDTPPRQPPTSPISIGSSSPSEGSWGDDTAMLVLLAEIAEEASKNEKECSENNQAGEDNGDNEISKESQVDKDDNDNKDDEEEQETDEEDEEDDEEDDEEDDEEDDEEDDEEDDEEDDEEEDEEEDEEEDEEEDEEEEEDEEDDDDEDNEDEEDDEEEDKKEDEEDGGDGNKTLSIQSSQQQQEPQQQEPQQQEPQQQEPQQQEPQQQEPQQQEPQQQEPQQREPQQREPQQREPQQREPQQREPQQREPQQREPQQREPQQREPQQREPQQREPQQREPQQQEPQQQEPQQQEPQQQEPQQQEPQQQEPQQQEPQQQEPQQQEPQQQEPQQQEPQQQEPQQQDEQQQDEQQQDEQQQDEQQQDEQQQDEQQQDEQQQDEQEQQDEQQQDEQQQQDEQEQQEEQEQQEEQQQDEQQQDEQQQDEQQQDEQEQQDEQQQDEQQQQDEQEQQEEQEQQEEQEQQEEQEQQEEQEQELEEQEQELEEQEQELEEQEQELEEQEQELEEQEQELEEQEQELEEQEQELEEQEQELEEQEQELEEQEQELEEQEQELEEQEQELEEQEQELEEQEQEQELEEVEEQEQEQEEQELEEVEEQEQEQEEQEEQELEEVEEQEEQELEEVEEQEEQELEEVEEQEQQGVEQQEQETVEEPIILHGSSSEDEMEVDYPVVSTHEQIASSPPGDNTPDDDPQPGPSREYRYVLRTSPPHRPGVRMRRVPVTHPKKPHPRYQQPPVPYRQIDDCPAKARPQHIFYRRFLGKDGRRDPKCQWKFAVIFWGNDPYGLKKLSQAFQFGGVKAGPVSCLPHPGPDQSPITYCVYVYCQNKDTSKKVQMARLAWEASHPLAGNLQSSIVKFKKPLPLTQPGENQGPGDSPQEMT
B2AR ag – agonists of human beta-2 adrenergic receptor inducing internalization | P07550 | 0.43% of 340,000 active | Am2.2-beta2AR cells, FAP receptor internalization, flow cytometry; reference of the scale not given here | AID 504454 | response, % (test concentration not listed);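 active means response above a set limit, near 3 SD of response in nonfluorescent compounds, cut at about 42% in these data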;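 further: stock transfer was 100 nL into about 11 µL; a reference agonist was the positive control; negative values mostly stem from fluorescent compounds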
ALR H2O2 inh – inhibitors of human sulfhydryl oxidase ALR | AID 485317 | purified ALR, DTT oxidation, H2O2 HRP-luminol luminescence | inhibition, % (no concentration beside the values) | P55789 | 3.8% of 290,000 active;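 active means mean and each replicate at 75% or more; inconclusive means only one of the two met; inactive means neither met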;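 further: stock transfer was 7.5 nL into about 7.5 µL; 0% = neutral wells and 100% = wells with inactivated enzyme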
Ecoli growth – inhibitors of Escherichia coli growth; OD600, 23 h; stronger effect = lower value; OD600 absorbance (test concentration not listed); 0.21% of 330,000 active; AID 1053175;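 active means OD600 absorbance below the run mean of sample wells minus 3.6 SD, in any replicate, cut at about 0.56 in these data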;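 further: stock transfer was 300 nL into about 60 µL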
HNF4A DNA FP – change in binding of human HNF4 alpha to DNA; P41235; HNF4a-FITC DNA binding, fluorescence polarization, 1 h; activity change, % at 10 µM; 0.3% of 360,000 active; AID 1224865; in the data active means activity change above about 30%, passing the limit was not always enough;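 further: controls were the assay level and a saturating level of protein; the project sought stronger binding though the title names inhibitors; some compounds called inactive have numbers as strong as hits; positive values seem to mean higher polarization but the record does not say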
FGF22 binding – FGF22 (human) thermal shift binding. 1.5% of 340,000 active. Q9HCT0. calls only at 9.99 µM. recombinant FGF22 thermal shift, SYPRO orange fluorescence; percent of sucrose octasulfate shift, DMSO zero;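 active means melting point raised past a set limit in the mean and every replicate; inconclusive means no clear call; three in four hits are not shown here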
Numbers without * were called inactive; i = inactive; ? = inconclusive; . = not tested or not shown.

Screens in order: HNF4A DNA FP	Ecoli growth	LANA-H2B inh	FGF22 binding	B2AR ag	UCH37 inh	ALR H2O2 inh
CC(=O)c1ccc(COC(=O)c2cc3ccccc3oc2=O)cc1
→ 0.9	0.67	11*	i	-3	-16	10
COC(=O)C1=C(C)N(CC2CCCO2)C(=O)/C1=C\c1ccc(O)cc1 (stereo unspecified)
→ 3.0	0.77	1.4	.	1	5.1	50
COc1ccc(NC(=S)N(CCCN2CCOCC2)Cc2ccco2)cc1
→ -1.1	0.71	3.5	i	2	0.8	.
CC(C)(CNC(=O)C1CCCC1)CNC(=O)C1CCCC1
→ -4.5	0.69	3.2	.	-4	0.4	0
O=c1cc(CN2CCOCC2)c2cc(Cl)ccc2o1
→ 1.9	0.67	-5.3	i	-5	1.6	-4
Cc1cc(C(=O)N/N=C/c2ccc(-c3ccc(C)c(Cl)c3)o2)n[nH]1
→ 0.6	.	1.1	i	11	.	.
Cc1ccc(C(=O)N/C(=C/c2ccccc2)C(=O)NCc2ccncc2)cc1
→ -2.5	0.66	-2.8	i	1	2.6	-4
CN1C=CC(=O)[C@@H](OC(=O)Nc2ccc(Br)cc2)[C@H]1c1ccccc1Br
→ -1.3	.	.	i	5	.	.
O=C1N(Cc2cccnc2)C[C@@H]2C[C@@H](c3cccc(OCc4ccccc4)c3)N3CCC[C@@]123
→ 3.9	0.68	3.3	i	7	1.6	-24
COc1ccc(-n2c(C)nc3cc(C(=O)O)ccc32)cc1
→ -0.5	0.71	-1.8	.	-4	1.8	-5
CN(C)c1cc[n+](CC(=O)N2c3ccccc3Sc3ccccc32)cc1
→ 3.2	0.71	-2.3	.	-5	7.0	.
CCN1CCN(C(c2ccccc2)c2nnnn2Cc2ccccc2)CC1 (stereo unspecified)
→ 0.2	0.69	0.5	.	-6	2.4	5
COc1ccc(CCNC(=O)C2CC(c3cccc([N+](=O)[O-])c3)=NO2)cc1 (stereo unspecified)
→ -2.2	0.71	-2.3	i	-5	-3.2	-22
COc1ccc(-c2cc3ccc(F)cc3cn2)cc1
→ 4.4	0.67	4.1	i	-1	3.8	1
CC(=O)c1cccc(NC(=O)COC(=O)CCc2ccc(S(=O)(=O)N3CCOCC3)cc2)c1
→ 4.2	0.66	-0.7	i	0	2.4	-2
COc1ccc2c(c1OC)C(=O)N1C2SC[C@H]1C(=O)NC1CCCC1 (stereo partly specified)
→ 1.2	0.69	-0.2	i	0	-188	-3
CN(Cc1nc2ccccc2[nH]1)C(=O)C1CCC(=O)N(CCc2cccc(F)c2)C1 (stereo unspecified)
→ -2.0	0.71	6.8	i	2	2.0	-5
CSCCC(NC(=O)COc1ccccc1)C(=O)N(C)CC(=O)Nc1ccc(C)cc1 (stereo unspecified)
→ -1.4	0.67	4.0	i	-1	0.5	-2
O=C(c1cccc(Cl)c1)N1CCN(Cc2ccccc2F)CC1
→ -4.2	0.71	-3.3	.	8	3.5	-1
COC(=O)c1c(C)[nH]c(C(=O)C(C)OC(=O)c2cnc(C)cn2)c1C (stereo unspecified)
→ -2.4	0.72	0.3	i	4	3.1	-15
COCC1CCN(Cc2cn(-c3ccccc3F)nc2-c2cc(C)sc2C)CC1
→ -1.7	0.66	-0.7	i	-4	3.3	-2
CC(=O)N1CCN(C(=O)COC(=O)CNC(=O)c2ccc(C)cc2)CC1
→ -0.3	0.67	-2.6	i	-6	-2.8	-5
CCS(=O)(=O)N1Cc2ccccc2CC1C(=O)Nc1nnc(SCc2c(Cl)cccc2Cl)s1 (stereo unspecified)
→ 7.4	0.64	3.9	i	-4	0.8	21
C[C@H](NC(=O)c1ccc2ccccc2c1)C(=O)N1CCC2(CC1)NCCc1[nH]cnc12
→ 2.9	0.72	2.1	i	-3	2.2	-5
COc1ccccc1NC(=O)c1cccc2c(Br)cccc12
→ 0.6	0.68	5.4	i	-8	-1.0	-3
COc1cc(C)ccc1S(=O)(=O)NC1CC(C)(C)NC(C)(C)C1
→ -0.9	.	-2.7	i	-1	.	-1
O=C(NCC1(c2ccccc2)CCCC1)c1cccc(Br)c1
→ 3.6	0.74	0.5	.	-8	2.0	2
CC(Sc1nc2ncc(Cl)cc2[nH]1)C(=O)Nc1ccc(C(N)=O)cc1 (stereo unspecified)
→ -1.3	0.69	0.7	.	-4	1.8	0
CCN1CCN(CCNC(=O)C2CCCN(Cc3nc(-c4cccc(Cl)c4)oc3C)C2)CC1 (stereo unspecified)
→ -2.7	0.76	2.0	i	8	1.6	-9
C#CCN(CC=C)C(=O)CCc1nnc(COc2ccccc2)o1
→ 2.7	0.7	-0.1	i	-5	-1.0	.
COc1ccc(C(=O)NC(C)c2nnc(SCC(=O)Nc3nc(C)cs3)n2C)cc1 (stereo unspecified)
→ 0.4	0.66	2.9	.	-3	1.7	60
Oc1ccc2c(c1)c1c3n2CCNC3CCC1 (stereo unspecified)
→ 5.5	0.67	1.2	.	-10	2.3	50
CCOC(=O)c1c(S(=O)(=O)NCCc2cccs2)c(C)n(C)c1C
→ 2.3	0.71	1.1	i	4	1.2	-12
COc1ccc(N2C(=O)CC(NNC(=O)c3ccc(Br)s3)C2=O)cc1 (stereo unspecified)
→ -1.8	0.68	2.0	i	11	-2.4	-5
CSCC[C@H](NC(=O)OC(C)(C)C)c1nnc(SCc2ccccc2)o1
→ 2.8	0.71	-3.2	.	0	1.5	.
CCOc1ccc(S(=O)(=O)NC2CCCCC2C)cc1 (stereo unspecified)
→ 2.2	0.7	0.1	i	4	6.3	.
COc1ccc2c(c1)nc(SCC(C)O)n2C (stereo unspecified)
→ 0.8	0.65	2.0	.	1	3.5	-5
CC(C)(CO)NC12CC3CC(CC(C3)C1)C2
→ 0.9	0.7	3.3	i	1	0.3	-5
CC1CCCCC1NC(=O)Cn1cnc2c1c(=O)n(C)c(=O)n2C (stereo unspecified)
→ 1.9	0.69	-9.8	i	-4	5.1	.
O=C(COc1ccc(Cl)cc1)NCCN1CCCCC1
→ -7.3	0.69	-1.1	i	-3	2.0	2
O=C(c1ccc(S(=O)(=O)N2CCOCC2)cc1)N1CCN(c2cccc(Cl)c2)CC1
→ -0.2	0.73	-2.5	.	8	6.8	-7
CCN(CC)S(=O)(=O)c1cccc(C(=O)Nc2nnc(C)s2)c1
→ -1.2	0.67	-4.5	i	-2	3.2	-2
C#CCNC(=O)C1=C[C@H](c2csc3ccccc23)C[C@H](OCc2ccc(CO)cc2)O1
→ 1.1	.	-4.1	i	1	-0.6	-9
CC1CCCCN1C(=O)C1COc2ccccc2O1 (stereo unspecified)
→ -0.4	0.7	-4.6	i	-2	-1.2	4
N/N=C/C(=N\Nc1ccc(Cl)cc1)C(=O)c1ccncc1
→ 4.2	.	5.2	i	-5	.	-4

Profiles from above. Values in the order: HNF4A DNA FP	Ecoli growth	LANA-H2B inh	FGF22 binding	B2AR ag	UCH37 inh	ALR H2O2 inh
CSCC[C@H](NC(=O)OC(C)(C)C)c1nnc(SCc2ccccc2)o1 is listed with 2.8	0.71	-3.2	.	0	1.5	.
O=C(COc1ccc(Cl)cc1)NCCN1CCCCC1 is listed with -7.3	0.69	-1.1	i	-3	2.0	2

The list continues.
Screens in order: HNF4A DNA FP	Ecoli growth	LANA-H2B inh	FGF22 binding	B2AR ag	UCH37 inh	ALR H2O2 inh
Cc1cccc(NC(=O)CC(=O)Nc2cccc(C)c2)c1
→ 2.1	0.66	2.4	i	14	6.3	-1
CSCC(C)N1CCC(Oc2cccc(C(=O)NCc3ccccn3)c2)CC1 (stereo unspecified)
→ -14	0.66	2.9	i	1	1.8	-12
CN1CCN(CC(=O)Nc2nc3ccccc3s2)CC1
→ 1.5	0.7	-2.0	i	-7	2.0	-1
CC(=Nc1ccccc1O)c1sc2ccccc2c1O
→ 38*	0.64	-2.4	i	9	1.3	92*
Cc1cccn2c(=O)nc(SCC(=O)c3ccc(Cl)cc3)nc12
→ 2.7	0.65	2.4	i	-5	6.2	-6
O=C(Nc1cc2c3c(c1)CC(=O)N3CCC2)c1ccccc1F
→ -2.4	0.7	6.0	i	-1	4.4	-1
COc1ccc2c(c1)sc1nc(=O)ccn12
→ -0.3	0.6	0.2	i	8	-39	1
O=C(Nc1nc(-c2ccc(F)c(F)c2)cs1)c1ccc(OCC2CCCO2)cc1 (stereo unspecified)
→ 0.6	0.71	9.0	i	-4	-7.0	-25
O=C(NC1CCCN(Cc2ccccc2F)C1)c1cccs1 (stereo unspecified)
→ -3.4	0.69	-3.9	i	6	-2.9	2
O=Cc1ccc(N2CCCC2)o1
→ 0.4	0.7	2.4	i	-9	5.5	-5
COc1ccc(OC)c(NC(=S)N2CCN(Cc3ccccc3)CC2)c1
→ 5.4	0.69	0.1	i	-3	4.6	-13
CC(NC(=O)/C(C#N)=C/c1ccc(N2CCOCC2)cc1)c1ccccc1 (stereo unspecified)
→ 3.2	0.68	-1.0	i	12	-2.3	10
Cc1cc(C)c2sc(C)[n+](CCCS(=O)(=O)[O-])c2c1
→ -0.1	0.7	-3.8	i	-7	3.7	15
CCc1n[nH]c(=S)n1/N=C/c1ccc(NC(C)=O)cc1
→ -0.1	.	1.7	i	2	.	?
OC(CNc1nc2ccccc2s1)c1ccccc1 (stereo unspecified)
→ 0.5	0.67	-6.7	.	-6	5.5	0
Cc1nc2ccc3nc(NC(=O)c4ccco4)sc3c2s1
→ 1.9	.	-1.5	.	-21	.	-13
CCN(CC)N=Nc1ccc(S(N)(=O)=O)cc1
→ -2.5	0.73	4.2	i	0	11	-1
O=C(NCc1ccc2c(c1)OCO2)c1cc(-n2cnnc2)ccc1Cl
→ -0.5	0.69	3.1	.	3	1.0	-6
O=C(NCC(=O)N1CCN(C/C=C/c2ccccc2)CC1)c1ccc(Br)cc1
→ -1.5	0.64	-2.1	i	-2	-3.4	-6
O=C(CS(=O)(=O)c1ccc2ccccc2c1)N1CCCCCC1
→ -3.7	0.71	-3.9	i	-4	3.0	36
O=C(COC(=O)c1cccc2ccccc12)Nc1cccnc1Cl
→ 0.7	0.68	-1.2	i	-2	-11	1
COc1ccc(OC)c(NC(=O)COC(=O)CCCN2C(=O)c3ccccc3C2=O)c1
→ -1.8	0.71	-0.6	i	4	2.2	-5
CCOC(=O)C1CCN(c2cc3c(cc2NC(=O)c2ccccc2Cl)n(C)c(=O)n3C)CC1
→ 0.8	0.71	-4.2	i	3	0.7	-6
CC(C)C(NC(=O)c1cccnc1)C(=O)O (stereo unspecified)
→ 0.2	0.69	0.1	i	8	1.2	1
Clc1cccc(Cl)c1/C=C/c1ccn[nH]1
→ 1.3	0.56	-4.5	i	3	4.5	1

Screening data as filed in PubChem.

Not all compounds are listed; rates above refer to the full screens.
